Calb FLC: C. albicans growth inhibition with fluconazole, primary screen, CaCi-2 strain, Alamar Blue fluorescence. growth inhibition, % (test concentration not listed). C. albicans CaCi-2 (fluconazole-resistant clinical isolate) + fluconazole, 48 h. actives 0.57% (n = 300,000);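 active = most replicates above 75%; inconclusive = exactly half above 75%; inactive = most below 75%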;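 also: all wells also contain fluconazole at 8 µg/ml as a sub-toxic cotreatment; 0% = median of DMSO wells and 100% = median of geldanamycin control wells; wells of about 8 µL received 7.5 nL stock; the first replicate is given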
LANA-H2B inh: blockers of LANA interaction with H2A/H2B – biochemical, FP readout, HTS, primary screen; Protein LANA1 (Human herpesvirus 8 type P (isolate GK18)), Q9QR71; cell-free LANA-H2A/H2B peptide, fluorescence polarization; inhibition, % (no concentration beside the values); actives 0.6% (n = 320,000); in the data active = inhibition mostly above about 10%, no sharp cut-off; inactive = mostly below about 6.7%;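 also: stock transfer was 7.5 nL into about 10 µL; 0% = median of vehicle wells and 100% = median of positive control wells; one replicate is shown; the record names a cut of 25% in any replicate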
Target sequence (Q9QR71 whole entry, looked up): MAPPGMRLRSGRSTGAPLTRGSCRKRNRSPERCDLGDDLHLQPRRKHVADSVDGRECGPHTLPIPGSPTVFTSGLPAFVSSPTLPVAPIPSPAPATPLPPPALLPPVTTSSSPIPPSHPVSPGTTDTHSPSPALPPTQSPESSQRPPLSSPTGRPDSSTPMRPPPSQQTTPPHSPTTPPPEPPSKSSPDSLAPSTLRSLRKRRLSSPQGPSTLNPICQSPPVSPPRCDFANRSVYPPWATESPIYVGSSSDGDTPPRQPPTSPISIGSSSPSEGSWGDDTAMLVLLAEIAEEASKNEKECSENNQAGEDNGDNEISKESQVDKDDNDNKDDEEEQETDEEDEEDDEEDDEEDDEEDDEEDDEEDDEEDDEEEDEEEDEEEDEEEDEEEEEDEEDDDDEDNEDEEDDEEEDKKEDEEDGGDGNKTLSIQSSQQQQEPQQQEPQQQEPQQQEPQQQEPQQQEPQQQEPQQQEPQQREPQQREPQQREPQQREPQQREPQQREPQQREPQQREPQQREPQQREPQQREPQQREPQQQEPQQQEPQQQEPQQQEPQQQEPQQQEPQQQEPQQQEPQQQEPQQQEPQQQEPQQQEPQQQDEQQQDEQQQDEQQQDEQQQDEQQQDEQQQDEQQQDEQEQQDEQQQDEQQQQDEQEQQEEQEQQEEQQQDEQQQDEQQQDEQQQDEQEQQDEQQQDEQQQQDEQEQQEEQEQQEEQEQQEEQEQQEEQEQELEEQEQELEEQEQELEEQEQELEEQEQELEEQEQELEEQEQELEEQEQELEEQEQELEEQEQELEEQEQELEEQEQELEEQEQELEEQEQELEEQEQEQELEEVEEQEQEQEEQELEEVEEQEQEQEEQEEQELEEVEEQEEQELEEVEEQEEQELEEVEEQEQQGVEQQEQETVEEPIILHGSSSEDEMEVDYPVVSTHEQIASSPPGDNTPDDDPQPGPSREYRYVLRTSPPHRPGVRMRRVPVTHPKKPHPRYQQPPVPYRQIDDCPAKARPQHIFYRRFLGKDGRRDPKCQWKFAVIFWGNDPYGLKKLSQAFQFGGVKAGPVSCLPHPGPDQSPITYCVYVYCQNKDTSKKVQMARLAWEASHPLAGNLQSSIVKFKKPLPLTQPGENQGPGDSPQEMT
RanGTP-Imp inh: inhibitors of RanGTP-importin-beta interaction, primary screen, biochemical, FRET, CFP-Ran, YFP-importin-beta, homogeneous. inhibition, % (test concentration not listed). actives 1.1% (n = 300,000). AID 2216, 2009. Ran GTPase (GTP-bound) - importin-beta complex. cell-free CFP-Ran/YFP-importin-beta FRET ratio;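 active = most replicates above 15%; inconclusive = exactly half above 15%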;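 also: 0% = DMSO wells and 100% = Ran loaded with GDP instead of GTP; wells of about 40 µL received 100 nL stock; the first replicate is given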
Bfl-1 A1 inh: caspase 3/7 activation in MEF A1-2A-BIM cells, primary screen, A1 inhibitor project, cell-based, luminescence, HTS; Caspase-Glo 3/7 luminescence, 3 h; percent of clofoctol response, vehicle zero; caspase activation, % (concentration not given with the values); actives 0.066% (n = 330,000);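 active = over half of replicate activation scores above 10%, or exactly half above 10 with the replicate mean above 10; inconclusive = replicate mean below 10 yet half the replicates above 10; inactive = over half of replicates below 10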;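 also: wells of about 30 µL received 50 nL stock; many hits fall short of the cut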
Beta apoptosis: inhibitors of cytokine-induced beta cell apoptosis, primary screen, luminescence. INS-1E cytokine-induced death, ATP luminescence, 48 h; percent of positive-control rescue, neutral wells zero. protection from apoptosis, % (concentration not given with the values). actives 0.8% (n = 300,000). AID 435005, 2010;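 active = all replicates at 75% or more, or half of them and the mean; inconclusive = half reach 75% but not the mean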;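 also: 0% = cytokine-treated negative control wells and 100% = positive control rescue; higher means more ATP so stronger rescue from cytokine killing; wells of about 40 µL received 100 nL stock; the first replicate is given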
MLL AF4-AF9 inh: inhibitors of AF4 peptide binding to AF9, primary screen, biochemical, AlphaScreen, biotin-AF4 peptide, FLAG-AF9, single point; actives 0.47% (n = 350,000); Protein AF-9 (Homo sapiens), P42568; inhibition, % at 10 µM;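 active = every replicate reaching a set inhibition limit, whatever the replicate mean, cut at about 25% in these data; inconclusive = mean inhibition reaches that limit but some replicates miss it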;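 also: 0% = plate neutral control median and 100% = total signal loss; the record names both 10 and 1 µM as test concentration; the first replicate is given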
T cruzi inh: inhibitors of intracellular T. cruzi growth, primary screen, luminescence, NIH3T3 host cells | inhibition, % (test concentration not listed) | T. cruzi beta-gal in NIH3T3, 90 h | actives 1.4% (n = 300,000);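 active = mean inhibition across valid replicates above about 55%, limit read from the data; inconclusive = mean below that limit but half or more replicates reach it; inactive = mean below it, under half of replicates reach it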;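 also: signal also drops with host cell toxicity which is not excluded here; 0% = plate median of DMSO wells and 100% = zero luminescence signal; higher percent means less beta-gal luminescence so fewer parasites; stock transfer was 50 nL into about 50 µL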
Vif A3G: inhibitors of Vif binding to APOBEC3G peptide, primary screen, biochemical, TR-FRET, GST-Vif 1-94, biotin-A3G peptide, dose response retest (AID 1117319). TR-FRET GST-Vif / biotin-A3G peptide binding; higher % means a stronger effect; test concentration not given here; strong numbers were not always called active. Virion infectivity factor (Human immunodeficiency virus type 1 group M subtype B (isolate …. inhibition, %, or IC50 in µM where a hit was titrated. actives 0.57% (n = 260,000);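 active = above the screen mean plus three standard deviations and confirmed in dose response; inconclusive = results disagree or hit not tested in dose response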;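 also: Vif residues 1-94 fused to GST binding biotinylated APOBEC3G peptide 110-148; 0% = full assay without inhibitor and 100% = GST in place of GST-Vif; retest series ran down from 100 µM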
* = called active by the depositor; ? = inconclusive; . = not tested or not shown.

SMILES,Calb FLC,LANA-H2B inh,RanGTP-Imp inh,Bfl-1 A1 inh,Beta apoptosis,MLL AF4-AF9 inh,T cruzi inh,Vif A3G
Cc1cccc(C(C)C)c1NC(=O)CN(C)Cc1cccc(F)c1,19,-0.5,0.4,0.5,1,0.1,-7,.
CC(OC(=O)CCC(=O)c1ccccc1)C(=O)Nc1ccc(F)cc1 (stereo not given),-2,3.1,-2.6,0.2,-3,-1.4,-7,0%
CC(=O)Nc1ccccc1C(=O)C(=O)Nc1cccc(C(=O)NC2CC2)c1,-2,-3.6,-3.3,-0.6,-10,.,9,-2%
O=C(COC(=O)c1ccc(CNS(=O)(=O)c2ccc(F)c(Cl)c2)cc1)NC1CCCCCCC1,-1,-2.2,3.3,0.0,-10,.,-21,12%
Cc1cc(NC(=O)CSc2ccc3nnc(-c4cccnc4)n3n2)no1,-5,2.6,-4.3,0.3,.,-13,-4,8%
CCCCSc1nc(O)c(Cc2ccccc2)c(=O)[nH]1,0,0.0,3.9,-0.5,-5,.,2,-8%
Cc1ccc(C2=Nc3ccccc3N(C(=O)c3ccccc3)C(C)C2)cc1 (stereo not given),8,2.1,3.8,-1.5,-3,.,-10,-4%
O=C(Nc1ncc(Br)s1)C(Cc1ccccc1)n1cccc1 (stereo not given),-1,0.0,3.6,0.2,0,0.1,6,1%
COc1ccc(NC(=O)CN(C)C(=O)c2cccc(-n3cccc3)c2)cc1,2,-3.4,7.2,-0.5,-6,8.5,-6,15µM*
CC(=O)Nc1ccc(OCC(O)CNC(C)C)cc1 (stereo not given),.,-0.1,.,0.4,0,-4.7,.,.
Cc1c(NS(C)(=O)=O)cccc1-c1nc2cccnc2s1,-3,3.3,-1.9,-4.2,-2,-2.2,-2,3%
CCCNC(=O)Nc1cccc(C(=O)OC)c1,?,-4.7,3.0,1.3,-1,-0.1,-11,-5%

Pulled one by one from the list above:
SMILES,Calb FLC,LANA-H2B inh,RanGTP-Imp inh,Bfl-1 A1 inh,Beta apoptosis,MLL AF4-AF9 inh,T cruzi inh,Vif A3G
CC(=O)Nc1ccccc1C(=O)C(=O)Nc1cccc(C(=O)NC2CC2)c1,-2,-3.6,-3.3,-0.6,-10,.,9,-2%
Cc1ccc(C2=Nc3ccccc3N(C(=O)c3ccccc3)C(C)C2)cc1 (stereo not given),8,2.1,3.8,-1.5,-3,.,-10,-4%

Remaining list, next part:
SMILES,Calb FLC,LANA-H2B inh,RanGTP-Imp inh,Bfl-1 A1 inh,Beta apoptosis,MLL AF4-AF9 inh,T cruzi inh,Vif A3G
CCn1c(SCC(=O)c2ccc(Cl)cc2)nnc1-c1cccs1,-2,0.4,-0.2,2.5,1,.,-2,4%
COc1ccc(C(C)=O)cc1COC(=O)CNC(=O)c1ccccc1F,-4,.,2.7,-0.2,1,.,-7,6%
O=P(OC1CCS(=O)(=O)C1)(c1ccccc1)c1ccccc1 (stereo not given),-1,-3.9,1.2,-0.1,2,.,1,-4%
COc1ccc(NC(=O)c2ccc(-c3nn(C)c(=O)c4ccccc34)cc2)cc1,0,-1.4,0.2,-0.1,4,-3.7,-5,10%
CCC1=NN2C(=N)/C(=C/c3ccc(OS(=O)(=O)c4ccccc4)c(OC)c3)C(=O)N=C2S1,-10,-3.1,-1.8,0.1,1,1.8,3,1%
Cc1ccc(S(=O)(=O)N2CN(Cc3ccco3)c3nc4ccccc4nc32)cc1,0,3.6,4.4,-0.6,-9,.,14,21%
COc1cc(NC(=S)NC(=O)c2ccccc2F)ccc1NC(=O)c1ccco1,0,2.8,-1.8,0.2,-1,-1.4,0,.
Cc1ccnc(NC(=O)c2ccc3c(c2)C(=O)N(CC(C)C)C3=O)c1,10,-3.0,-0.4,-4.8,-17,1.4,-29,-9%
CC(Sc1n[nH]c(-c2ccccc2F)n1)C(=O)Nc1ccc(S(N)(=O)=O)cc1 (stereo not given),.,-2.3,.,0.2,2,-1.5,.,6%
CC(=O)c1ccc(NC(=O)c2ccc(CNc3c(N4CCCC4)c(=O)c3=O)cc2)cc1,-4,0.1,2.0,0.4,3,-5.2,-6,-9%
CC(C)NC(=O)CN(Cc1ccc(F)cc1)C(=O)CCC(=O)Nc1ccccn1,-1,3.4,-1.5,0.4,-2,-1.4,-18,.
O=C(Nc1nnc(C2CC2)s1)c1cncc(Br)c1,.,4.1,.,-4.5,2,-0.4,.,.
COc1ccc(C2(C)NC(=O)N(CC(=O)Nc3ccc(-c4nc5ccc(C)cc5s4)cc3)C2=O)cc1 (stereo not given),5,1.1,3.5,0.6,4,-1.8,42,-138%
Cc1cc(O)cc(O[C@H]2OC(CO)[C@H](O)[C@@H](O)[C@H]2O)c1 (stereo not given in full),0,1.3,2.3,-0.8,-2,-4.0,-7,-2%
Cc1ccc(NC(=O)Nc2cccc(F)c2)nc1,-2,-0.7,-1.9,-0.6,-5,-3.4,-5,3%
C[C@H](C(=O)O)c1cccc(C(=O)c2ccccc2)c1,8,-5.9,4.2,-1.0,0,-0.9,-21,.
CCCCNC(=O)c1onc(CSc2ccc(F)c(F)c2)c1C(=O)NCCCC,4,2.6,1.5,1.2,6,-4.1,12,.
CCCc1c(C(=O)NNc2ccc(C)cc2)cnn1-c1ccccc1,-6,0.4,1.1,-0.3,-9,5.1,11,0%
O=C1CCCN=C(Nc2ccc(F)c(Cl)c2)S1,-16,1.2,5.5,-0.1,4,-1.8,2,.
CCOc1ccccc1N(CC(=O)NCCSc1ccccc1)S(C)(=O)=O,14,7.0,7.1,0.7,3,-0.3,1,1%
COc1cc(C(=O)Nc2cc(S(C)(=O)=O)ccc2Cl)ccc1OCC(=O)N1CCOCC1,.,5.9,.,-1.1,1,-2.1,.,-9%
Cc1ccc(S(=O)(=O)N2CCN(C(=O)COC(=O)c3ccc(Br)o3)CC2)c(C)c1,-4,1.4,.,1.3,1,?,-1,.
C/C(=N/NC(=O)c1ccc2c(c1)OCO2)c1ccc(Br)s1,5,6.7,?,-1.3,0,-1.4,12,?
COCCCN1C(=O)/C(=C\c2ccc3c(c2)OCO3)C(C(=O)OC)=C1C,-7,-1.2,1.7,-0.6,-3,5.0,3,.
Cc1cccnc1CN1CCN(Cc2nc(Cc3cccc(F)c3)no2)CC1,5,-0.6,-0.4,-0.1,-6,-14,12,-10%
NS(=O)(=O)c1ccc(NC(=O)/C=C/c2cccs2)cc1,5,2.5,-1.2,-0.7,-3,-14,-7,1%
CCOC(=O)Cn1c(=N)n(CCOc2ccc3ccccc3c2)c2ccccc21,0,1.0,6.8,0.3,-3,.,10,-1%
COc1ccc(-n2c(SCc3cn4c(C)cccc4n3)nc3ccccc3c2=O)cc1OC,36,-4.9,1.4,0.0,9,6.6,21,2%
Cc1cc(Cn2nnc(-c3ccc(Br)cc3)n2)cc(C)c1O,.,-0.7,.,-1.7,2,-13,.,-3%
CCC(C)[C@H](NC(=O)C1CC(=O)N(c2ccc3c(c2)OCO3)C1)C(=O)NC1CCCCC1 (stereo not given in full),-2,2.2,-5.2,0.0,-8,-0.7,-10,1%
Cn1sc(NC(=O)c2cccc(Cl)c2)nc1=O,-8,1.6,2.2,-5.7,3,.,13,10%
Fc1ccc(CNC(=S)NCc2ccc(F)cc2)cc1,2,4.3,-2.0,-0.3,.,1.1,11,-6%
Cc1ccc(SCC(=O)NC(=O)Nc2ccc3c(c2)OCCO3)c(C)c1,-11,0.1,0.9,-0.3,-8,.,-11,.
CCc1nc(SCc2ccccc2)n[nH]1,-10,-2.8,3.4,-0.2,-5,0.6,-4,-4%
COc1ccc(-c2nnn(CC(=O)N(Cc3ccc(F)cc3)C(C(=O)NC3CCCC3)c3ccc(F)cc3)n2)cc1 (stereo not given),-7,1.5,6.0,0.3,15,.,36,.
C[C@H]1O[C@H](O[C@H]2[C@H](O[C@@H]3CC[C@@]4(C)C(CC[C@]5(C)C4CC=C4[C@@H]6CC(C)(C)CC[C@]6(C(=O)O[C@@H]6O[C@H](CO)[C@@H](O)[C@H](O)[C@H]6O)CC[C@]45C)C3(C)C)O[C@H](C(=O)O)[C@@H](O)[C@@H]2O)[C@@H](O)[C@@H](O)[C@@H]1O (stereo not given in full),.,0.6,.,0.5,-1,3.0,.,.
CCCc1nc2ccccc2c(=O)n1NC(=O)c1c(O)c2ccccc2[nH]c1=O,-5,2.1,0.0,-0.4,-10,.,-10,?
CCOC(=O)C1CCCN(C2=NC(=O)/C(=C/c3ccc(N(C)C)cc3)S2)C1 (stereo not given),0,8.7,-0.8,-0.5,-1,11,16,12%
COc1ccc(C(CCNCc2ccc(F)cc2)c2ccc(F)cc2)cc1 (stereo not given),9,-4.5,-3.2,1.1,7,2.3,41,30%
NC1=NC(c2ccc([N+](=O)[O-])cc2)N(c2ccc(F)cc2)C(N)=N1 (stereo not given),-2,-2.7,1.3,0.3,.,3.6,0,.
CC(C)[C@H](NC(=O)[C@@H]1CSC2c3ccccc3C(=O)N21)C(=O)N1CCCCC1 (stereo not given in full),-1,-1.0,?,-0.3,-2,-2.4,-4,3%
COc1ccc(C2SCCN2C(=S)Nc2cccc(Cl)c2)cc1 (stereo not given),7,-0.6,2.5,0.5,-4,.,-25,8%
CC(OC(=O)c1ccc2ncsc2c1)C(=O)Nc1cccc(Cl)c1 (stereo not given),.,0.7,.,1.6,-2,0.5,.,-10%
Nc1nc(NCCCN2CCOCC2)nc(Nc2cccc(F)c2)c1[N+](=O)[O-],-3,3.8,-3.9,0.2,7,2.2,9,-3%
O=C(CC1COc2ccccc2O1)Nc1ccccn1 (stereo not given),-2,0.9,-0.6,0.6,-11,.,-6,5%
COc1ccc(-c2csc(COC(=O)C(C)(C)C)n2)cc1,-2,-4.5,2.5,-1.6,-5,.,-11,-4%

Some values from above:
COc1ccc(C2SCCN2C(=S)Nc2cccc(Cl)c2)cc1 (stereo not given) @ T cruzi inh: -25
CC(OC(=O)c1ccc2ncsc2c1)C(=O)Nc1cccc(Cl)c1 (stereo not given) @ LANA-H2B inh: 0.7
CCOC(=O)C1CCCN(C2=NC(=O)/C(=C/c3ccc(N(C)C)cc3)S2)C1 (stereo not given) @ RanGTP-Imp inh: -0.8
Nc1nc(NCCCN2CCOCC2)nc(Nc2cccc(F)c2)c1[N+](=O)[O-] @ MLL AF4-AF9 inh: 2.2
CC(C)[C@H](NC(=O)[C@@H]1CSC2c3ccccc3C(=O)N21)C(=O)N1CCCCC1 (stereo not given in full) @ Beta apoptosis: -2
O=C(CC1COc2ccccc2O1)Nc1ccccn1 (stereo not given) @ Vif A3G: 5%

From PubChem
